# Compound activity from PubChem BioAssay.
# AF4-AF9 inh = inhibitors of human MLL-AF4/AF9 interaction | AID 651704 | 0.47% of 350,000 active | P42568 | inhibition, % at 10 µM | AlphaScreen, biotin-AF4 peptide binding to FLAG-AF9;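 active means every replicate reaching a set inhibition limit, whatever the replicate mean, cut at about 25% in these data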;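 further: 0% = plate neutral control median and 100% = total signal loss; the record names both 10 and 1 µM as test concentration; the first replicate is given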
# Target sequence (P42568 whole entry, looked up): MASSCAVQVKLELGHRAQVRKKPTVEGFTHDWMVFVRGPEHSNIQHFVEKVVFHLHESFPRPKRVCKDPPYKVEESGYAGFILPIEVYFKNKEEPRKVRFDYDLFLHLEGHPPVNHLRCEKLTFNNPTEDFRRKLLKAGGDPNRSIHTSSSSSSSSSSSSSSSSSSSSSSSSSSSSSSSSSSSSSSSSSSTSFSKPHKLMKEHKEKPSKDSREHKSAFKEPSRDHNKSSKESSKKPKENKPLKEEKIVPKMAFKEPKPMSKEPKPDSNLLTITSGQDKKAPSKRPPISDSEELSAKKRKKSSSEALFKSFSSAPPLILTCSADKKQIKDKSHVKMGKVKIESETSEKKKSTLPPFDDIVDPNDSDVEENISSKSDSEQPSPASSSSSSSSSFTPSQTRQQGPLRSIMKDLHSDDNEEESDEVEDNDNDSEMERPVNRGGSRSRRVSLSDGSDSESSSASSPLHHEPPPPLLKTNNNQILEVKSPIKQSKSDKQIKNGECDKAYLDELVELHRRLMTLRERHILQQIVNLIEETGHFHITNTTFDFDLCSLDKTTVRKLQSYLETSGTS
# FGF22 binding = FGF22 (human) thermal shift binding | Q9HCT0 | recombinant FGF22 thermal shift, SYPRO orange fluorescence; percent of sucrose octasulfate shift, DMSO zero | calls only at 9.99 µM | 1.5% of 340,000 active | AID 651658;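 active means melting point raised past a set limit in the mean and every replicate; three in four hits are not shown here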
# Target sequence (Q9HCT0 whole entry, looked up): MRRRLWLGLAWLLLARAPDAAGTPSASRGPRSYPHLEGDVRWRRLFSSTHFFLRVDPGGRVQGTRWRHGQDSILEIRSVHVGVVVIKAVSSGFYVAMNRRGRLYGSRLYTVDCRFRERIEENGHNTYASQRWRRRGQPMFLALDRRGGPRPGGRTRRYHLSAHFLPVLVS
# Ecoli rRNA inh = inhibitors of bacterial rRNA selective over humanized ribosomes | 1.6% of 350,000 active | AID 720706 | GFP signal change (wild-type ribosome), % (test concentration not listed) | E. coli WT GFP vs humanized-ribosome RFP mutants, fluorescence, 24 h; active compounds read low; DMSO median 0, no signal -100;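 active means significant combined selectivity score with lowered wild-type GFP, culture density cut under 30%, mutant RFP and density less affected; inactive means any of these conditions unmet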; further: one replicate is shown; some compounds called inactive have numbers as strong as hits
# Ecoli rRNA inh OD600 = recorded beside Ecoli rRNA inh, whose call it bears; OD600 change, %; measured here: OD600 growth;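 optical density of the mix in the first replicate; 0 = DMSO median and -100 = no signal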
# Ecoli rRNA inh RFP = further read-out of Ecoli rRNA inh, marked with its call; RFP signal change, %; measured here: RFP humanized mutant strains;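 first replicate; 0 = DMSO median and -100 = no signal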
# The depositor's hits bear a star; i = inactive. An excerpt. The share of hits here may be higher or lower than overall.
# The first four compounds as a preview:
AF4-AF9 inh,FGF22 binding,Ecoli rRNA inh,Ecoli rRNA inh OD600,Ecoli rRNA inh RFP,canonical_smiles
2.4,i,-2,-4,0.9,C[C@@H]1CCCCO[C@H](CN(C)S(=O)(=O)c2cccs2)[C@H](C)CN([C@H](C)CO)C(=O)c2cc(NC(=O)CCC(F)(F)F)ccc2O1
1.3,i,4,6,-1.2,O=C(N[C@@H]1C=C[C@@H](CC(=O)N2CCOCC2)O[C@H]1CO)c1ccccn1
0.4,i,-1,-3,1.3,Cc1noc(C)c1S(=O)(=O)N(C)C[C@@H]1Oc2c(NC(=O)c3ccc(-c4nccs4)cc3)cccc2C(=O)N([C@@H](C)CO)C[C@@H]1C
-0.5,i,2,10,0.9,CCC(=O)Nc1ccc2c(c1)OC[C@@H](C)N(C(C)=O)C[C@H](C)[C@@H](OC)CN(C)C2=O

# The list itself, from the start:
AF4-AF9 inh,FGF22 binding,Ecoli rRNA inh,Ecoli rRNA inh OD600,Ecoli rRNA inh RFP,canonical_smiles
2.4,i,-2,-4,0.9,C[C@@H]1CCCCO[C@H](CN(C)S(=O)(=O)c2cccs2)[C@H](C)CN([C@H](C)CO)C(=O)c2cc(NC(=O)CCC(F)(F)F)ccc2O1
1.3,i,4,6,-1.2,O=C(N[C@@H]1C=C[C@@H](CC(=O)N2CCOCC2)O[C@H]1CO)c1ccccn1
0.4,i,-1,-3,1.3,Cc1noc(C)c1S(=O)(=O)N(C)C[C@@H]1Oc2c(NC(=O)c3ccc(-c4nccs4)cc3)cccc2C(=O)N([C@@H](C)CO)C[C@@H]1C
-0.5,i,2,10,0.9,CCC(=O)Nc1ccc2c(c1)OC[C@@H](C)N(C(C)=O)C[C@H](C)[C@@H](OC)CN(C)C2=O
-2.7,i,2,-3,-0.6,C[C@H](CO)N1C[C@H](C)[C@H](CN(C)C(=O)NC2CCCCC2)Oc2ccc(NC(=O)Cc3ccccc3)cc2CC1=O
-0.9,i,2,1,-1.5,C[C@@H]1CN([C@H](C)CO)C(=O)c2cc(C#C[C@@H](C)O)cnc2O[C@H]1CN(C)C(=O)c1ccccc1F
9.1,i,0,-6,15,O=C(C[C@H]1CC[C@H]2[C@@H](COC[C@H](O)CN2Cc2ccc(Oc3ccccc3)cc2)O1)N1CCN(c2ccccc2)CC1
-0.5,i,-49,-73,-11,Cc1noc(C)c1-c1ccc(C(=O)NCCc2ccccc2)c2occc12
-4.6,i,-3,-5,-3.4,CO[C@@H]1CN(C)C(=O)c2ccc(NC(=O)c3cc(C)on3)cc2OC[C@@H](C)NC[C@@H]1C
-2.5,i,1,0,-2.6,CN(C)CC(=O)N[C@@H]1CC[C@H](CCn2cc(C3CC3)nn2)O[C@@H]1CO
-3.2,i,-2,-5,1.2,COc1ccc(S(=O)(=O)Nc2ccc3c(c2)C(=O)N([C@@H](C)CO)C[C@@H](C)[C@@H](CN(C)S(=O)(=O)c2ccc(Cl)cc2)OCCCC[C@@H](C)O3)cc1
-0.7,i,7,7,-7.6,CC1C(c2ccccc2)OCCN1C=NC#N (stereo not given)
-4.0,i,5,14,1.3,COc1ccc2[nH]c(=O)c(CN(C(C)=O)c3cc(C)ccc3C)cc2c1
-0.5,i,1,-10,-2.5,C[C@@H]1CCCCO[C@@H](CN(C)C(=O)c2ccncc2)[C@@H](C)CN([C@H](C)CO)C(=O)c2cc(NS(C)(=O)=O)ccc2O1
-0.4,i,1,-2,1.8,CO[C@H]1CN(C)C(=O)c2ccc(NS(=O)(=O)c3ccccc3)cc2OC[C@@H](C)N(Cc2ccccn2)C[C@@H]1C
-1.3,i,-3,4,-1.5,CCC(=O)N1C[C@@H]2[C@H](c3ccccc31)[C@@H](CO)N2C(=O)CC
5.3,i,-10,-22,-2.8,C[C@H](CO)N1C[C@H](C)[C@@H](CN(C)Cc2ccncc2)Oc2ccc(NC(=O)Nc3cccc4ccccc34)cc2C1=O
-0.6,i,4,-6,-0.2,C[C@@H](NC(=O)[C@H]1[C@H](CO)[C@H]2Cn3c(ccc(-c4ccccc4F)c3=O)[C@@H]1N2C)c1ccccc1
-1.8,i,7,10,-1.0,CCCCn1c(SCC(=O)NC2CC2)nc2cc(C(=O)OC)ccc2c1=O
-0.8,i,0,1,2.5,Cc1ccc(CC(C)(O)CC(C)(O)Cc2ccc(C)cc2)cc1 (stereo not given)
0.6,i,2,4,-2.0,CCC(=O)N[C@@H]1CC[C@@H](CC(=O)NCC2CCCCC2)O[C@H]1CO
-1.7,i,7,0,-4.4,C[C@@H]1CCCCO[C@@H](CN(C)C(=O)C2CCCCC2)[C@@H](C)CN([C@H](C)CO)C(=O)c2cc(NC(=O)C3CCCCC3)ccc2O1
1.1,i,-2,1,-0.1,N#C[C@@H]1[C@@H](c2ccccc2)[C@H](CO)N1C(=O)Cc1ccccn1
-3.8,i,4,6,3.0,C[C@@H]1CN([C@H](C)CO)C(=O)c2cc(NC(=O)c3ccncc3)ccc2O[C@@H](C)CCCCO[C@@H]1CN(C)Cc1ccc(C(=O)O)cc1
-0.4,i,-1,0,-3.8,CCc1csc(N2[C@H](C#N)[C@H](c3ccc(-c4ccc(F)cc4)cc3)[C@H]2CO)n1
-3.0,i,0,13,0.1,C[C@@H]1CN([C@H](C)CO)C(=O)Cc2cc(NS(=O)(=O)c3ccccc3)ccc2O[C@H]1CN(C)Cc1ccncc1
11,i,2,8,-2.5,COc1ccc(NC(=O)N(C)C[C@H]2Oc3c(NC(=O)c4cc(C)nn4C)cccc3C(=O)N([C@@H](C)CO)C[C@H]2C)cc1
-0.3,i,-36*,-24*,-4.3*,COc1ccc(C=CC(=O)c2cc(O)ccc2O)cc1
-0.3,i,-22,-67,-0.6,CC1(C(=O)NCc2ccc(C(F)(F)F)cc2)CCN1Cc1c(F)cccc1F (stereo not given)
-5.8,i,2,-16,2.9,COCC#Cc1ccc([C@@H]2[C@@H](CO)N3CCCCN(S(=O)(=O)c4ccccc4C)C[C@@H]23)cc1
-0.9,i,-10,-2,-3.4,CSCCC(NC(=O)c1ccccc1Cl)C(=O)NCCOc1ccc(C)cc1 (stereo not given)
-5.0,i,-60,-79,-20,O=C(O)c1ccccc1Nc1cccc(C(F)(F)F)c1
1.3,i,16,3,4.5,COC(=O)C[C@@H]1C=C[C@@H](NS(=O)(=O)c2cccc(OC)c2)[C@@H](CO)O1
-1.0,i,-1,-3,1.8,COCCNC(=O)C[C@@H]1CC[C@H]2[C@@H](COC[C@@H](O)CN2S(=O)(=O)c2ccccc2C)O1
0.0,i,-2,-11,4.8,C[C@@H]1CN([C@H](C)CO)C(=O)c2cc(NC(=O)NC3CCCCC3)ccc2O[C@@H]1CN(C)Cc1ccc(Oc2ccccc2)cc1
0.3,i,2,4,0.1,COCC(=O)N1C[C@H]2CON(C)[C@H]2C[C@H]1c1cccc(-c2ccccc2)c1
0.3,i,7,-3,0.7,COc1ccc(CNC(=O)C[C@@H]2C[C@H]3c4cc(NC(=O)CN(C)C)ccc4O[C@H]3[C@@H](CO)O2)cc1
4.6,i,-2,1,6.4,NC(=O)c1cccc(-c2coc3c(C(=O)NCCc4ccccc4)cccc23)c1
0.3,i,-7,-11,4.5,CCCNC(=O)N1[C@H](CNC(=O)CC)[C@H](c2ccc(C3=CCCC3)cc2)[C@@H]1CO
-1.4,i,9,19,-2.5,CN1CCN(c2ncnc3c2ncn3[C@H]2CN(C)C[C@@H](CO)O2)CC1
-2.2,i,-3,-8,-0.9,CN1c2ccc(Br)cc2[C@@H]2[C@@H](CCN2C(=O)C2CC2)[C@@H]1CO
1.4,i,10,10,-0.8,CC(C)NC(=O)C1(C)CCCN1C(=O)c1cc(C#N)cs1 (stereo not given)
-1.5,i,3,2,-2.7,C[C@H](CO)N1C[C@H](C)[C@H](CN(C)C(=O)C2CC2)OCc2ccccc2-c2ccccc2C1=O
2.4,i,-5,-6,1.2,Cc1ccccc1-c1ccc([C@H]2[C@@H](CO)N3CCCCN(S(C)(=O)=O)C[C@H]23)cc1
-0.3,i,2,4,0.7,O=C(C[C@H]1C=C[C@@H](NS(=O)(=O)c2ccccc2)[C@H](CO)O1)NCCN1CCCCC1
-3.7,i,2,2,0.6,COc1ccc(NC(=O)N(C)C[C@@H]2Oc3ccc(NS(=O)(=O)c4cn(C)cn4)cc3C(=O)N([C@@H](C)CO)C[C@@H]2C)cc1
1.6,i,3,-1,-1.2,Cc1ccc(S(=O)(=O)Nc2cccc3c2O[C@H](CN(C)CC2CCCCC2)[C@@H](C)CN([C@@H](C)CO)C3=O)cc1
-20,i,-4,6,0.3,CCC(=O)Nc1ccc2c(c1)OC[C@@H](C)N(Cc1cccnc1)C[C@H](C)[C@H](OC)CN(C)C2=O
5.0,i,1,5,-1.8,C[C@@H]1CN([C@@H](C)CO)C(=O)c2cc(/C=C/c3ccccc3)cnc2O[C@H]1CN(C)Cc1cccnc1
2.7,i,-2,-3,0.1,C[C@H]1CN([C@@H](C)CO)C(=O)Cc2cc(NC(=O)Cc3ccccc3)ccc2O[C@H]1CN(C)Cc1ccc(-c2ccccc2)cc1
-2.4,i,2,0,-0.9,C[C@@H]1CN([C@H](C)CO)C(=O)c2cc(NS(=O)(=O)c3ccccc3)ccc2O[C@@H]1CN(C)Cc1ccccc1
-2.3,i,0,-5,-2.3,CC(CSC(=O)c1ccccc1)C(=O)N1c2ccccc2CC1C(=O)O (stereo not given)
-0.8,i,-20,-20,-6.5,COc1ccc(OC(=O)c2cccc(S(=O)(=O)N3CC(C)OC(C)C3)c2)cc1 (stereo not given)
-2.4,i,3,-2,1.2,C[C@@H]1CN([C@@H](C)CO)C(=O)Cc2cc(NC(=O)Cn3cnnn3)ccc2O[C@@H]1CN(C)S(=O)(=O)c1cccs1
-5.5,i,1,1,2.5,CO[C@@H]1CN(C)C(=O)c2ccc(NS(=O)(=O)c3cccc(F)c3)cc2OC[C@@H](C)NC[C@@H]1C
-2.8,i,1,9,-3.3,COc1cccc(-c2cnc3c(c2)C(=O)N([C@H](C)CO)C[C@@H](C)[C@@H](CN(C)C(C)=O)O3)c1
-2.0,i,-4,2,3.3,O=C(COC(=O)c1cncc(Br)c1)Nc1ccc(S(=O)(=O)N2CCOCC2)cc1
-2.8,i,17,10,0.3,CN1CCC(N2CCN(C3CN(C4CCCC4)S(=O)(=O)C3)CC2)CC1 (stereo not given)
-0.8,i,-3,-2,-1.6,COc1ccc(COCC(O)CN2CCN(S(=O)(=O)c3c(F)cccc3F)CC2)cc1OC (stereo not given)
5.1,i,-5,-23,-2.2,CN1c2ccc(-c3ccc(F)cc3)cc2[C@H]2[C@H](CCN2C(=O)Cc2cccnc2)[C@H]1CO

# Taken from above:
# Under Ecoli rRNA inh OD600, C[C@@H]1CN([C@@H](C)CO)C(=O)Cc2cc(NC(=O)Cn3cnnn3)ccc2O[C@@H]1CN(C)S(=O)(=O)c1cccs1 has the entry -2
# Under Ecoli rRNA inh OD600, CC(CSC(=O)c1ccccc1)C(=O)N1c2ccccc2CC1C(=O)O (stereo not given) has the entry -5

# Additional records follow:
AF4-AF9 inh,FGF22 binding,Ecoli rRNA inh,Ecoli rRNA inh OD600,Ecoli rRNA inh RFP,canonical_smiles
3.9,i,3,5,-1.7,CCOc1ccccc1NC(=O)COC(=O)C12CC3CC(CC(O)(C3)C1)C2
-1.1,i,-2,3,-1.3,COc1ccc(NC(=O)N(C)C[C@H]2OCc3cn(nn3)CCCC(=O)N([C@H](C)CO)C[C@H]2C)cc1
16,i,-2,7,0.6,C[C@H](CO)N1C[C@H](C)[C@@H](CN(C)C(=O)CCCN(C)C)OCCCC[C@H](C)Oc2ccc(NC(=O)Nc3cccc4ccccc34)cc2C1=O
5.1,i,3,-13,3.5,C[C@@H]1CN([C@H](C)CO)C(=O)Cc2cc(NS(=O)(=O)c3cn(C)cn3)ccc2O[C@@H]1CN(C)Cc1ccc(-c2ccccc2)cc1
-1.6,i,0,0,-1.1,C[C@@H]1CN([C@@H](C)CO)C(=O)c2cc(NC(=O)C3CCCCC3)ccc2O[C@@H](C)CCCCO[C@@H]1CN(C)Cc1ccc(C(=O)O)cc1
4.7,i,3,-1,0.8,Cc1ccc(S(=O)(=O)N(C)C[C@H]2Oc3ccc(NC(=O)CCCN(C)C)cc3CC(=O)N([C@H](C)CO)C[C@@H]2C)cc1
12,i,-7,5,-1.2,CCOC(=O)C1=C(C)N=c2sc(=Cc3ccc(OCC(=O)O)cc3)c(=O)n2C1c1ccc(Cl)cc1 (stereo not given)
9.0,i,-31,-52,31,CO[C@H]1CN(C)C(=O)c2cc(NC(=O)Nc3ccc(C(F)(F)F)cc3)ccc2OC[C@H](C)NC[C@@H]1C
-1.2,i,0,16,-4.9,Nc1ncnc(N)c1NC(=O)c1cc(Cl)c(OCc2ccccc2)c(Cl)c1
-11,i,-1,5,-0.2,C[C@H]1CN([C@@H](C)CO)C(=O)c2cc(NC(=O)Cc3cn(C)c4ccccc34)ccc2O[C@@H]1CN(C)S(=O)(=O)c1cn(C)cn1
-0.3,i,5,3,-1.6,O=C(C[C@@H]1C=C[C@H](NC(=O)c2ccc(F)cc2)[C@@H](CO)O1)NCCc1ccncc1

# Random excerpt: two compounds from above.
AF4-AF9 inh,FGF22 binding,Ecoli rRNA inh,Ecoli rRNA inh OD600,Ecoli rRNA inh RFP,canonical_smiles
3.9,i,3,5,-1.7,CCOc1ccccc1NC(=O)COC(=O)C12CC3CC(CC(O)(C3)C1)C2
-1.1,i,-2,3,-1.3,COc1ccc(NC(=O)N(C)C[C@H]2OCc3cn(nn3)CCCC(=O)N([C@H](C)CO)C[C@H]2C)cc1
